Cruzain noTriton: cruzain (T. cruzi) inhibition without detergent. P25779. purified cruzain, Z-FR-AMC fluorescence, no detergent. Potency, µM, for inactives: max response, negative = inhibition, most hits filed as inhibitors. 200,000 compounds, 2.3% hits;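 further: plate controls were enzyme without inhibitor for no effect and buffer without enzyme for full effect; nearly all actives have a fitted effect of over 40% in size; top concentration of the series not given in the record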
Target sequence (P25779 123-467 limits assumed): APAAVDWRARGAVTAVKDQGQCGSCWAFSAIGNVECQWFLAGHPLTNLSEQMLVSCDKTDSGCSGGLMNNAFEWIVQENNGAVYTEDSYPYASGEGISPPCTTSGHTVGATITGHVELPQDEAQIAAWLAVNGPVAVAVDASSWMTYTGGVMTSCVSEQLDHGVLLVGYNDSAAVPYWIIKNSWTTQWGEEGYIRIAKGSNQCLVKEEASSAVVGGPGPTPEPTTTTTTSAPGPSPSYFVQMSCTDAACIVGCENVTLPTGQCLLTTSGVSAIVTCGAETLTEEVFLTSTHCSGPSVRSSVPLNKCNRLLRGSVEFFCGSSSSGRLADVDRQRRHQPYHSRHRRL
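Purified cruzain at 1.5 nM, pre-incubated 15 min with compound at room temperature in 100 mM sodium acetate pH 5.5, 5 mM DTT, 0.00005% Triton X-100. Reaction started with 2 uM Z-FR-AMC; AMC fluorescence increase over 60 s gives rate.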
RE007 growth inh: less growth of the S. pombe RE007 Vpr strain. S. pombe RE007 Vpr strain, BacTiter-Glo ATP luminescence, 24 h; control for the full effect not named in the record. Potency, µM (series often up to 92.2 µM), for inactives: at the highest dose activity change, negative = less growth. 360,000 compounds, 0.21% hits. AID 651644; active = well fitted falling curve with a large enough effect; inconclusive = small, poorly fitted or top-dose-only effect; inactive = no such curve, though single readings can be large or run the other way;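 further: on the % scale 0 is the no-effect control and ±100 the full control effect; nearly all actives have a fitted effect of over 50% in size; the assay follows cell death caused by Vpr and the record does not say whether a fall means rescue or toxicity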
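Fission yeast strain RE007, carrying one chromosomally integrated HIV-1 vpr copy, was seeded at OD 0.01 in PMG+AL medium with 23 nL pinned compound. After 24 h at 30 °C and 99% humidity, viability was read by BacTiter-Glo luminescence.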
Lassa entry inh: inhibitors of Lassa virus binding or cell entry; Lassa virus pseudotype entry inhibition, cell reporter; control for the full effect not named in the record; Potency, µM (top dose mostly 37.9 µM), without a hit: top-dose activity change, negative = inhibition, most hits filed as inhibitors; 300,000 compounds, 1.2% hits; AID 540256; active means well fitted inhibition curve with a large enough effect; inconclusive means small, poorly fitted or top-dose-only effect, or effect the other way; inactive means flat fitted curve, though single readings scatter; tested in HEK293 cells; further: on the % scale 0 is the no-effect control and ±100 the full control effect; nearly all actives have a fitted effect of over 50% in size; luciferase read-out
SARS PLpro yeast: blocks SARS-CoV papain-like protease in a yeast assay | 330,000 compounds, 0.19% hits | S. cerevisiae expressing SARS-CoV PLpro, growth rescue; control for the full effect not named in the record | AID 485353 | Potency, µM (titrated, usually from 32.9 µM), for inactives: at the top dose activity, positive = growth rescue; active means well fitted rising curve with a large enough effect; inconclusive means small, poorly fitted or top-dose-only effect; inactive means no such curve, though single readings can be large or run the other way; further: 0% is about no effect; nearly all actives have a fitted effect of over 55% in size; growth read by luminescence after 48 h
2A StopGo: lowers the luciferase signal of an FMDV 2A StopGo reporter | human cells with a luciferase reporter of 2A StopGo recoding; control for the full effect not named in the record | AID 1159524 | Potency, µM (series often up to 57.9 µM), for inactives: at the top dose signal change, negative = less light | 410,000 compounds, 1.2% hits; active = well fitted falling curve with a large enough effect; inconclusive = small, poorly fitted or top-dose-only effect; inactive = no such curve, though single readings can be large or run the other way; tested in HEK293T cells; further: on the % scale 0 is the no-effect control and ±100 the full control effect; nearly all actives have a fitted effect of over 45% in size; luciferase light after 4 h
Marburg entry inh: blocks Marburg virus binding to or entry into cells; Marburg virus pseudotyped entry inhibition, cell reporter; control for the full effect not named in the record; about a third of the inactives were read at about 46 µM; 300,000 compounds, 1.8% hits; Potency, µM (highest dose often 37.8 µM), for inactives: top-dose activity change, negative = inhibition, hits mostly inhibitors; active = well fitted inhibition curve with a large enough effect; inconclusive = small, poorly fitted or top-dose-only effect, or effect the other way; inactive = flat fitted curve, though single readings scatter; tested in HEK293 cells; about a fifth of its hits are not listed in these tables; further: on the % scale 0 is the no-effect control and ±100 the full control effect; luciferase read-out
NS1 inh: inhibitors of influenza NS1 protein function. S. cerevisiae slowed by influenza A NS1, growth recovery by OD600. Potency, µM (titrated, usually from 46.1 µM), inactives show top-dose activity, positive = more growth. 270,000 compounds, 0.4% hits; active means well fitted rising curve with a large enough effect; inconclusive means small, poorly fitted or top-dose-only effect; inactive means no such curve, though single readings can be large or run the other way; further: nearly all actives have a fitted effect of over 50% in size
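Recovery from NS1-induced slow growth read by OD600 in budding yeast switched to galactose assay medium (pH 6.0, -URA) at 1:100 dilution. Compound 23 nl per well; the matching strain lacking NS1 serves as control.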
Cruzain inh Det: cruzain (T. cruzi) inhibition with detergent; P25779; purified cruzain, Z-FR-AMC fluorescence, 0.01% Triton; Potency, µM, for the others: max response, negative = inhibition, hits mostly inhibitors; 200,000 compounds, 0.43% hits;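 further: plate controls were neutral wells for no effect and buffer without enzyme for full effect; nearly all actives have a fitted effect of over 40% in size; top concentration of the series not given in the record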
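Sodium acetate buffer (100 mM, pH 5.5) containing 5 mM DTT and 0.01% Triton X-100 hosted 1.5 nM cruzain and test compound for 15 min at room temperature. Cleavage of 2 uM Z-FR-AMC was then tracked by fluorescence.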
* hit, by the source's call; ? = inconclusive; · = not tested or not shown; & = joins results of further samples; [ ] = dose if it differs, or a comment. Unless noted, the call rests on the fitted dose curve; in most records, active means well fitted curve in the direction sought with a large enough effect; inconclusive means small, poorly fitted or top-dose-only effect, or another doubt; inactive means no such curve, though single readings can be large; an effect the other way counts as inactive or inconclusive. Potency means the concentration at half of the fitted maximal effect.

Start of the listing, in advance, four compounds:
SMILES	Cruzain inh Det	NS1 inh	SARS PLpro yeast	Cruzain noTriton	Lassa entry inh	RE007 growth inh	Marburg entry inh	2A StopGo
OC1C=CSc2nc3ccccc3n21 (stereo not drawn)	3.8%	2%	2%	0%	-6%	-10%	?	-29%
COc1ccc(C)cc1NS(=O)(=O)c1ccc(-c2cnc(C3CC3)o2)cc1	-9.3%	4%	-2%	?	·	-5%	·	?
Cc1cccc(NC(=O)C(=O)C2C(=O)Nc3ccccc32)c1 (stereo not drawn)	·	-5%	0%	·	-3%	-27%	-7%	17%
O=C(O)C1Oc2cc3ccccc3cc2O1	·	1%	-1%	·	·	13%	·	-23%

The list itself (from the top)
SMILES	Cruzain inh Det	NS1 inh	SARS PLpro yeast	Cruzain noTriton	Lassa entry inh	RE007 growth inh	Marburg entry inh	2A StopGo
OC1C=CSc2nc3ccccc3n21 (stereo not drawn)	3.8%	2%	2%	0%	-6%	-10%	?	-29%
COc1ccc(C)cc1NS(=O)(=O)c1ccc(-c2cnc(C3CC3)o2)cc1	-9.3%	4%	-2%	?	·	-5%	·	?
Cc1cccc(NC(=O)C(=O)C2C(=O)Nc3ccccc32)c1 (stereo not drawn)	·	-5%	0%	·	-3%	-27%	-7%	17%
O=C(O)C1Oc2cc3ccccc3cc2O1	·	1%	-1%	·	·	13%	·	-23%
O=[N+]([O-])c1ccc(S(=O)(=O)N2CCN(C3CCN(Cc4ccccc4)CC3)CC2)cc1	·	2%	2%	·	·	-6%	-20%[46.1 µM]	-21%
CCCCNC(=O)CN1C(=O)NC2(CCCc3ccccc32)C1=O (stereo not drawn)	5.5%	12%	2%	-4%	0%	5%	2%	10%
CC1CCC(NC(=O)C2CCN(C(=O)Nc3ccccc3)CC2)CC1 (stereo not drawn)	·	·	-3%	·	6%	-24%	12%	20%
COc1c(Cl)cnn(-c2ccc(Cl)c(Cl)c2)c1=O	·	·	0%	·	3%[46.1 µM]	12%	?	-3%
Cn1c(Cn2nnc3ccccc32)nnc1SCC(=O)c1ccc(F)cc1	-0.4%	0%	-2%	-7%	-6%	-9%	6%	·
COc1ccc(NC(=O)CNC(=O)Cn2c(C)cc3ccccc3c2=O)cc1OC	0.7%	6%	1%	9%	?	5%	?	?
COc1ccc2c(C)c(CC(=O)N3C[C@H]4C[C@@H](C3)c3cccc(=O)n3C4)c(=O)oc2c1	·	-3%	6%	·	·	-4%	·	-17%
Cc1ccccc1-c1noc(N)c1C#N	2.4%	-12%	0%	-13%	6%	-3%	5%	?
Cc1cccc(N2CCN(c3ccc(NC(=O)/C=C\C(=O)O)cc3)CC2)c1	·	7%	-1%	·	6%	-14%	10%[46.1 µM]	6%
COC(=O)c1nc2ccc(C)cn2c1F	4.3%	10%	-2%	-2%	·	-4%	·	61%[activator]
CN1CCc2c(sc(NC(=O)Cc3ccccc3)c2C(N)=O)C1	·	3%	?	·	·	-14%	·	-24%
Cc1ccc(-n2c(C)cc(C(=O)COc3c(CO)cc(F)cc3CO)c2C)cc1C	-8.8%	-5%	0%	-15%	?	14%	?	?
CC(=O)NC(Cc1ccccc1C)C(=O)NC1CCN(C(=O)c2cccc(C)c2)CC1 (stereo not drawn)	·	4%	0%	·	·	-5%	·	2%
Cc1noc(C)c1C(=O)NCCc1c(C)[nH]c2ccccc12	·	5%	-3%	·	-6%[46.1 µM]	3%	1%[46.1 µM]	10%
COC(=O)c1ccc(C(=O)OC)c(NC(=S)N2CCCC2)c1	·	-2%	7%	·	·	10%	·	12%
CC(C)(C)NC(=O)CSc1nc2ccc(NC(=O)CSc3nnnn3Cc3ccccc3)cc2s1	2.2%	3%	2%	0%	?	10%	8.9µM*	14µM*

Next part:
SMILES	Cruzain inh Det	NS1 inh	SARS PLpro yeast	Cruzain noTriton	Lassa entry inh	RE007 growth inh	Marburg entry inh	2A StopGo
O=C(CSc1nccn1Cc1ccco1)Nc1ccc(OC(F)(F)F)cc1	-11%	·	·	7%	-16%[46.1 µM]	·	·	42%[activator]
Oc1c(C(c2cccc(F)c2)N2CCN(Cc3ccccc3)CC2)sc2ncnn12 (stereo not drawn)	-2.6%	-9%	13%	10%	·	-15%	·	0%
CCc1cc2c(=O)[nH]c(-c3ccccn3)nc2s1	-8.7%	-88%	?	-2%	5.6µM*	32µM*	6.3µM*	?
CSc1ncccc1C(=O)OC(C)C(=O)Nc1cccc(S(=O)(=O)N2CCOCC2)c1 (stereo not drawn)	·	·	-8%	·	-12%	1%	6%	19%
CC(C)c1cccc(C(C)C)c1NC(=O)c1ccc(OCC(=O)NCc2ccccc2)cc1	0.1%	25%	-9%	7.9µM*	-19%	·	3%	·
COc1cc(OC)c(N(C)C(=O)c2sc3nc4n(c(=O)c3c2C)CCCC4)cc1Cl	-10%	·	·	?	10%[46.1 µM]	·	·	-8%
CCCN1CN(c2ccccc2)C(=S)N(c2ccccc2)C1	·	7%	-2%	·	13%	8%	21%[46.1 µM]	8%
CC(C)C(OC(=O)c1nsc(Cl)c1Cl)C(=O)NC(C)(C)C (stereo not drawn)	·	·	1%	·	8%[46.1 µM]	-15%	29%[46.1 µM]	-14%
c1ccc(-c2nnnc3ccccc23)cc1	-1.2%	11%	20%	1%	-26%	4%	-34%	-1%
CC(CN1CCCC1)OC(=O)c1ccc(Cl)cc1 (stereo not drawn)	·	12%	4%	·	·	9%	·	-17%
NC(=O)c1c(NC(=O)CN2C(=O)CCC2=O)sc2c1CCCCC2	-2.4%	-30%	4%	3%	·	-4%	·	-5%
COc1cccc(NC(=O)c2cc(OC)c(OC)c(OC)c2Br)c1	-4.7%	-11%	1%	-10%	9%	13%	3%	-20%
CCOc1ccccc1OCCCC(=O)N(C)CC(=O)Nc1cc(C)ccc1C	·	3%	-1%	·	-1%	7%	2%[46.1 µM]	-3%
COc1cc(C2N(C)CCC3(OCCO3)C2(C)C)cc(OC)c1OC (stereo not drawn)	-0.3%	8%	4%	-2%	?	20%	?	-2%
CCC(C(=O)Nc1ccon1)c1ccccc1 (stereo not drawn)	·	0%	3%	·	9%[46.1 µM]	16%	?	-22%
CCN(CC1COc2ccccc2O1)C(=S)Nc1ccccc1 (stereo not drawn)	-3.5%	-104%	11%	1%	-3%	-5%	?	?
N#Cc1nc(COc2ccc(Br)cc2)oc1NCCN1CCOCC1	-4.3%	-73%	9%	0%	3%	-8%	2%&2%	-15%
CCOc1ccccc1CNC(=O)CSc1nnc(C)c2c(C)n(-c3ccccc3)nc12	-4.9%	·	·	0%	?	·	·	-28%
CCCn1c2ccccc2c2cnn(CC(=O)NCCCN3CCCC(C)C3)c(=O)c21 (stereo not drawn)	·	-3%	0%	·	-27%[46.1 µM]	-2%	?	-7%
CCc1ccc(OCC(=O)NC(C)(C)C)cc1	-1.5%	4%	-4%	13%	19%	-13%	0%	8%

Carrying on.
SMILES	Cruzain inh Det	NS1 inh	SARS PLpro yeast	Cruzain noTriton	Lassa entry inh	RE007 growth inh	Marburg entry inh	2A StopGo
CCOc1ccc(OCC)c(NC(=O)CN2CCN(c3cccc(C)c3)CC2)c1	-6.0%	-39%	-11%	?	?	-4%	?	?
CC(C)(C)CC(=O)Nc1cc2c3c(c1)CC(=O)N3CCC2	·	14%	-2%	·	·	2%	·	1%
COc1cc(/C=C2\C(=N)N3N=C(S(C)(=O)=O)SC3=NC2=O)cc(OC)c1OCCOc1ccc(C)cc1	·	6%	1%	·	·	20%	·	?
O=C(N/N=C/c1ccc(O)cc1)c1[nH]c2ccc(Br)cc2c1-c1ccccc1	-11%	19%	-1%	20%	?	5%	?	-19%
COc1cc(/C=N/NC(=O)COc2ccc(C)cc2)ccc1OC(=O)c1cccs1	-5.3%	?	-6%	?	9.2µM*	3%	10%	1%
CC(C)(C)Nc1nc(C(N)=O)nc(N2CCOCC2)n1	4.8%	-6%	-4%	10%	-16%	6%	3%&-4%	?
CC(=O)c1c(C)[nH]c(C(=O)COc2cc(C)cc(C)c2)c1C	1.0%	-13%	-6%	-9%	2%	-5%	?	-14%
Cn1c(N)c(S(=O)(=O)N2CCN(c3ccccc3Cl)CC2)c(=O)n(C)c1=O	·	-3%	1%	·	14%	-7%	?	-12%
COCc1cc(=O)[nH]c2cc(NC(=O)C3CC3)c(C)cc12	1.9%	-2%	1%	-3%	-13%	-3%	1%	-3%
Cc1ccc(/C=C(\C#N)C(=O)N2CCCC2)c(C)c1	·	-5%	-7%	·	21%[46.1 µM]	-26%	7%[46.1 µM]	23%
CC(=O)N1N=C(c2cccs2)CC1c1ccco1 (stereo not drawn)	·	6%	-1%	·	-3%[46.1 µM]	14%	-1%[46.1 µM]	-3%
Cc1nn(-c2ccccc2)nc1C(=O)OCC(=O)N1CCCCC1C (stereo not drawn)	·	·	1%	·	6%	0%	16%	-9%
COCCNC(=O)c1c(N)n(-c2ccccc2)c2nc3ccccc3nc12	-8.1%	-9%	-2%	?	-6%	-1%	-30%	·
CCc1ccc(OCC(=O)Nc2ccc(S(=O)(=O)N3CCCC3)cc2)c(Br)c1	1.9%	3%	4%	-4%	-18%	-4%	?	?
COC(=O)c1ccc(Cl)cc1NC(=O)Nc1nnc(N(C)C2CCCCC2)s1	-3.4%	·	·	2%	9%[46.1 µM]	·	-1%[46.1 µM]	1%
COc1ccc(-c2cc(C)no2)cc1S(=O)(=O)N1CCOc2ccc(C)cc21	·	3%	-2%	·	17%[46.1 µM]	3%	-2%[46.1 µM]	1%
